Vaccinia pol inh – vaccinia E9 polymerase processive synthesis inhibitors, primary screen, biochemical, absorbance. Vaccinia virus DNA polymerase (E9) processive complex. 0.94% of 46,000 active. in vitro processive DNA synthesis, absorbance read-out; active compounds read low; some inactives read as strong as hits. normalized absorbance, % (concentration not given with the values). AID 493162, 2011;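 active means replicate mean up to 90% and picked by the depositor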;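 further: 100% = median of the test wells of a plate; 100 nL library stock went into each well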
Starred values were filed as active, the others as inactive.

SMILES | Vaccinia pol inh
O=C(Nc1ncn[nH]1)/C(=C/c1ccc(Cl)cc1)c1ccc(F)cc1 | 109
CC(=O)Oc1cccc(O)c1 | 101
NC(=O)c1ccsc1NC(=O)c1ccc(Br)s1 | 113
Cn1c(CC(C)(C)C)nc2ccccc21 | 102
CCSc1ncnc2c1sc1nc3c(cc12)COC(C)(C)C3 | 100
COc1ccccc1C(=O)COC(=O)c1ccccc1C(F)(F)F | 108
O=C(O)CCC(=O)N1CCN(c2ncccc2C(F)(F)F)CC1 | 100
CCN1C=C/C(=C\c2cc[n+](CC)c3ccccc23)c2ccccc21 | 65*
CCOC(=O)C1CCCN(C(=O)C2c3ccccc3Oc3ccccc32)C1 (stereo not drawn) | 100
CCCCC(=O)Nc1c(-c2ccccc2)nc2ccccn12 | 100
CCCC(=O)Nc1sccc1C#N | 108
CCc1nc2ccccc2n1CC(=O)N(c1ccccc1)C(C)C | 100
Cc1cc(SC(C)C(=O)O)nc2ccccc12 (stereo not drawn) | 100
O=C(O)CC1SC(=Nc2ccccc2)N(c2ccccc2)C1=O (stereo not drawn) | 91
CC1CN(c2nc3ccccc3nc2SCC(=O)NCc2ccccc2Cl)CC(C)O1 (stereo not drawn) | 99
CCOc1ccc(CC(=O)O)cc1 | 106
Cc1cs/c(=N\C(=S)Nc2ccccc2)n1C | 99
Cc1c(O)c(CN2CCOCC2)cc2c(-c3ccccc3)cc(=O)oc12 | 100
CN(C)CCOC(=O)c1ccccc1O | 77
N#Cc1ccccc1CCl | 95
Nc1nc(NC(=O)c2ccco2)nn1-c1ccccc1 | 102
O=C(CBr)Nc1nnc(-c2ccc(Cl)cc2)s1 | 100
NCC1CCC(N)C(OC2C(N)CC(N)C(OC3OC(CO)C(O)C(N)C3O)C2O)O1 (stereo not drawn) | 100
Cc1ccc(CNC(=O)C2CCN(S(C)(=O)=O)CC2)cc1 | 101
CCN(Cc1ccccc1)C(=O)CSc1nc2ccccc2s1 | 107

Sorted by molecular weight (falling): part of the list above.
SMILES | Vaccinia pol inh
CCN(Cc1ccccc1)C(=O)CSc1nc2ccccc2s1 | 107
O=C(O)CCC(=O)N1CCN(c2ncccc2C(F)(F)F)CC1 | 100
Cc1ccc(CNC(=O)C2CCN(S(C)(=O)=O)CC2)cc1 | 101
CC(=O)Oc1cccc(O)c1 | 101

(list continues)
SMILES | Vaccinia pol inh
O=C(Cn1c(=O)n(CCC(=O)NC2CCCC2)c(=O)c2ccccc21)NCc1ccco1 | 99
O=C(C1=NNCC1c1ccccc1)c1ccccc1 (stereo not drawn) | 111
O=S(=O)(CCc1ccncc1)c1ccccc1 | 100
CC(=O)NCCOc1ccc(C)c(C)c1 | 103
O=S(=O)(NCCc1ccccc1)c1ccccc1 | 100
COc1cc2sc(C)nc2c2ccccc12 | 94
c1ccc(-c2cn[nH]c2N2CCOCC2)nc1 | 93
COC(=O)CSc1nc2ccccc2[nH]1 | 89
O=C(Nc1ccc(Br)cc1)c1ccc2nsnc2c1 | 101
FC(F)(F)c1cccnc1N1CCNC1=S | 103
Cc1ccccc1N1C(=O)c2cc(S(N)(=O)=O)c(Cl)cc2NC1C (stereo not drawn) | 102
CSc1cccc(NC(=O)c2noc3c2CSc2ccccc2-3)c1 | 102
O=C(O)CSc1ccc2c3c(cccc13)CC2 | 95
CCOc1cc(C(=O)NCc2ccc3[nH]c(C)cc3c2)cc(OCC)c1OCC | 104
O=C(NCc1ccc2[nH]c3c(c2c1)CCCC3)C1CCCC1 | 100
CSc1nc(COc2ccc(C(C)(C)C)cc2)nc(-n2cccc2)c1C#N | 100
CCCC(=O)NCc1nc2ccccc2n1C | 99
NC(=O)CSc1nc2ccccc2s1 | 100
O=C1SCCC1NS(=O)(=O)c1ccccc1 (stereo not drawn) | 100
CC1(C)CC(CC(=O)O)(c2ccc(F)cc2)CCO1 (stereo not drawn) | 110
CN1CCCC(OC(=O)c2cccnc2Cl)C1 (stereo not drawn) | 102
O=C1CC(c2c[nH]c3ccccc23)C(=O)N1c1ccccc1 (stereo not drawn) | 99
CC1=NOC(=O)/C1=C/c1ccc(-c2ccccc2)o1 | 99
O=C(c1ccccc1)c1ccc(NC(=O)c2cccs2)cc1 | 91
CCc1ccc(C2=CC(c3cccc(Br)c3)C(C#N)C(=O)N2)cc1 (stereo not drawn) | 100

The list goes on:
SMILES | Vaccinia pol inh
c1ccc(-c2nnc(-c3cccnc3)o2)cc1 | 100
OCC1OC(Nc2ccccn2)C(O)C(O)C1O (stereo not drawn) | 100
O=C(NCCC(c1ccccc1)c1ccccc1)c1cccnc1Cl | 89
COC(=O)c1ccc(NC(=O)CNC(=O)C2CCCCC2)cc1 | 102
CC(C)(C)c1ccc(C(=O)OCc2ccc3c(c2)OCO3)s1 | 101
COc1ccc(-n2c(=O)c3c4c(sc3n(CC(=O)Nc3cc(C)[nH]n3)c2=O)CCCC4)c(OC)c1 | 96
C=CC[C@@H]1/C=C(\C)C[C@H](C)C[C@H](OC)[C@H]2O[C@@](O)(C(=O)C(=O)N3CCCC[C@H]3C(=O)O[C@H](/C(C)=C/[C@@H]3CC[C@@H](O)[C@H](OC)C3)[C@H](C)[C@@H](O)CC1=O)[C@H](C)C[C@@H]2OC | 99
CC1CN(CC(O)COc2ccccc2C(C)C)CC(C)O1 (stereo not drawn) | 88
CCOc1ccc(C2(CC(=O)Nc3ccccc3)C(=O)c3ccccc3C2=O)cc1OC | 98
CC1=NOC(=O)/C1=C\c1ccc(O)c(O)c1 | 100
COc1ccccc1-[n+]1c(C)cc(C)cc1C | 99
O=C(CCc1ccccc1)Nc1nnc(SCC(=O)N2CCCCCC2)s1 | 101
Nc1cc(Cl)ccc1N1CCCCC1 | 90
CC1=CC(c2ccc(Cl)cc2)n2nc(NC(=O)CCCC(=O)O)nc2N1 (stereo not drawn) | 100
CCCCn1c(Br)nc2c1c(=O)[nH]c(=O)n2C | 99
Cc1ccc(OCCn2c(N)nc3ccccc32)cc1 | 100
C=CCNC(=O)CC12CC3CC(CC(Br)(C3)C1)C2 | 110
Cc1ccnc(NC(c2ccc(Cl)cc2)c2c(C)[nH]c3ccccc23)c1 (stereo not drawn) | 95
COc1ccc(C(CC(=O)O)NC(=O)Cc2ccccc2)cc1 (stereo not drawn) | 100
Cc1ccc(C(=O)C2C(=O)C=C(c3ccc(C)cc3)OC2=O)cc1 (stereo not drawn) | 100
COc1ccc(-c2cc(C(F)(F)F)nc(SCC(=O)N3CCc4ccccc43)n2)cc1OC | 107
S=c1nc(NC2CC2)c2ccccc2[nH]1 | 98
OC(COCc1ccccc1)CN1CCc2ccccc2C1 (stereo not drawn) | 98
O=C(Nc1cccc2cnccc12)c1cc(Cl)cc(Cl)c1 | 102
O=C(O)C1CCCN1C(=O)/C=C/c1ccc(F)cc1 (stereo not drawn) | 92

Next section.
SMILES | Vaccinia pol inh
CCSc1nc2sc3c(c2c(=O)n1-c1ccc(OC)cc1)CC(C(C)C)OC3 (stereo not drawn) | 99
FC(F)(F)c1ccnc(Oc2ccc(C3=NCCS3)cc2)c1 | 100
Cc1n[nH]c(=S)n1/N=C\c1ccco1 | 104
Cc1ccsc1C(N)=S | 99
COC(=O)c1ccc(S(=O)(=O)N2CCN(c3ccc(C(F)(F)F)cn3)CC2)n1C | 102
Cc1ccc(NS(=O)(=O)c2ccc(N3C(=O)c4ccccc4C3=O)cc2)cc1C | 100
CC(C)(C)C1CCc2onc(C(=O)NCc3ccc(F)cc3)c2C1 (stereo not drawn) | 99
Cc1cc(C)nc(N2C(=O)CC(C(=O)O)NC2=NCCc2c[nH]c3ccccc23)n1 (stereo not drawn) | 93
Cc1ccccc1OCCn1cc(/C(N)=N/O)c2ccccc21 | 100
CN(Cc1cnc2nc(N)nc(N)c2n1)c1ccc(C(=O)N[C@@H](CCC(=O)O)C(=O)O)cc1 | 99
O=C(NCc1ccc2c(c1)CCO2)c1ccc2nsnc2c1 | 102
O=C(Nc1ncccc1O)c1c(O)c2cccc3c2n(c1=O)CC3 | 104
CC(C)(C)c1cc(N)n2nc(C(C)(C)C)cc2n1 | 107
Cc1cc[n+](CC2OCc3ccccc3CO2)cc1 | 99
Cc1nc2ccccc2n1CC(=O)O | 102
CC(C)(C)NC(=O)C(C(=O)c1ccccc1)n1ccccc1=O (stereo not drawn) | 98
O=S(=O)(/N=C/c1cc(Br)ccc1O)c1ccccc1 | 100
N#C/C(=C(\O)CCl)c1nnc2n1CCCCC2 | 99
CC(CCc1ccco1)NC(=O)Cn1ncc2ccccc21 (stereo not drawn) | 85
Cn1c(SCC(=O)c2ccc3c(c2)CCCC3)nc2ccccc2c1=O | 100
COc1ccc(-n2cnc3cc(C(=O)NCc4ccccc4OC)ccc32)cc1 | 105
O=C1Nc2cc(C(=O)N3CCN(c4ccccc4)CC3)ccc2Sc2ccccc21 | 102
N#CC1=C(c2ccccc2)COC1=O | 94
O=C(C1Sc2nnc(-c3ccccc3)n2NC1c1ccccc1)N1CCCC1 (stereo not drawn) | 99
Clc1ccc(Cn2ncc3c(N4CCCCC4)ncnc32)cc1 | 95

The list continues:
SMILES | Vaccinia pol inh
Cc1cc(C)c2c3n(nc2n1)C(=O)NC(C(F)(F)F)(C(F)(F)F)N3 | 100
CC(C)c1cc(NCCN2CCOCC2)n2c(nc3ccccc32)c1C#N | 106
Cc1cc(C)c(S(=O)(=O)n2c(SCC(=O)NC3CCCCC3)nc3ccccc32)c(C)c1 | 102
Cc1ccc(C2CCN(C(=S)NC(C)C)C2)cc1 (stereo not drawn) | 102
COC(=O)c1ccc(CSc2nccc(=O)[nH]2)cc1 | 92
CC(CN1CCCC1)OC(=O)COc1ccccc1 (stereo not drawn) | 102
CCN1C(=O)c2ccccc2S(=O)(=O)c2ccc(C(=O)NC3CCCC3)cc21 | 97
CCC(C)NS(=O)(=O)c1ccc2c(c1)CC(=O)N2 (stereo not drawn) | 104
CSc1ccccc1NC(=O)COC(=O)C12CC3CC(CC(C3)C1)C2 | 87
Cc1ccccc1NC(=O)COc1cccc(Br)c1 | 102
Cc1cc(C)cc(NC(=O)N2CCN(Cc3ccncc3)CC2)c1 | 101
COc1ccc(CCn2c(C)c3c(=O)n(-c4nc5ccccc5s4)[nH]c3cc2=O)cc1 | 105
S=c1cc[nH]c(=S)n1-c1nc(-c2ccccc2)sc1-c1ccccc1 | 100
Cc1ccc(CN2CCN(/N=C\C=C\c3ccccc3)CC2)cc1 | 100
CCOC(=O)c1ccc(N(C)C)c2c(N(C)C)cccc12 | 108
COc1ccc(-n2nc(C(=O)NCC(=O)NC3CCCCCC3)c3ccccc3c2=O)cc1Cl | 91
CN=Cc1c[nH]c2ccccc12 | 102
NS(=O)(=O)c1cc(C(=O)Nc2cccc(C(F)(F)F)c2)ccc1F | 94
O=C1CCCN1CC(CN1CCOCC1)Sc1nnnn1-c1ccccc1 (stereo not drawn) | 100
COc1cc(C2CS(=O)(=O)CS(=O)(=O)C2)ccc1O | 100
COc1cccc(N=Cc2c[nH]c3ccccc23)c1 | 100
N#Cc1c(-c2ccccc2)noc1/C=C/Nc1ccccc1 | 93
Cc1ccc(C2=CC(=O)C=CC2=O)cc1C | 114
O=C(CSc1nnc(-c2cccs2)o1)NC1CCCCC1 | 100
CCOc1ccc(-n2nnnc2-c2ccccn2)cc1 | 75

Overlap with the part before: twelve entries, followed by the next part.
SMILES | Vaccinia pol inh
Cc1ccc(CN2CCN(/N=C\C=C\c3ccccc3)CC2)cc1 | 100
CCOC(=O)c1ccc(N(C)C)c2c(N(C)C)cccc12 | 108
COc1ccc(-n2nc(C(=O)NCC(=O)NC3CCCCCC3)c3ccccc3c2=O)cc1Cl | 91
CN=Cc1c[nH]c2ccccc12 | 102
NS(=O)(=O)c1cc(C(=O)Nc2cccc(C(F)(F)F)c2)ccc1F | 94
O=C1CCCN1CC(CN1CCOCC1)Sc1nnnn1-c1ccccc1 (stereo not drawn) | 100
COc1cc(C2CS(=O)(=O)CS(=O)(=O)C2)ccc1O | 100
COc1cccc(N=Cc2c[nH]c3ccccc23)c1 | 100
N#Cc1c(-c2ccccc2)noc1/C=C/Nc1ccccc1 | 93
Cc1ccc(C2=CC(=O)C=CC2=O)cc1C | 114
O=C(CSc1nnc(-c2cccs2)o1)NC1CCCCC1 | 100
CCOc1ccc(-n2nnnc2-c2ccccn2)cc1 | 75
CCS(=O)CCSc1nc(-c2ccc(Br)cc2)cc(-c2ccccc2)c1C#N (stereo not drawn) | 99
Cc1ccc(C(=O)CCC(=O)Nc2ccc(Br)c(C)c2)cc1 | 97
CC1CCCN(C(=O)CSCC(=O)N=c2sc3ccccc3n2C)C1 (stereo not drawn) | 93
CN(C(=O)c1cc2c(=O)oc3ccccc3c2s1)c1ccccc1Cl | 100
COc1ccc(S(=O)(=O)N(C)CC(=O)O)c2ccccc12 | 99
O=C(O)C1CC1C(=O)Nc1ccc(Oc2ccc(Cl)cc2C2CCCCC2)nc1 (stereo not drawn) | 75
COc1ccc2cc3cc(C(=O)NC4CCCC(C)C4C)oc3nc2c1 (stereo not drawn) | 101
CCN(CC)c1ccc(-n2c(C)cc(/C=C3/NC(=O)N(Cc4ccccc4F)C3=O)c2C)cc1 | 101
Nc1nonc1C(=O)N1CCCCC1 | 99
Cn1cc(NC(=O)NCCc2ccsc2)c2ccccc2c1=O | 99
Cc1cccc(N2C(=O)c3ccc(C(=O)Nc4c[nH]c(=O)[nH]c4=O)cc3C2=O)c1C | 100
Cc1nonc1NC(=O)Nc1cccnc1 | 100
CC(=O)Nc1ccc(S(=O)(=O)N2CCN=C2SCc2ccc(C)cc2)cc1 | 101
NC(=O)c1ccc(NC(=O)CSC(=O)c2ccccc2)cc1 | 93
Cc1ccc(N/C(N)=N/c2nc(C)cc(=O)[nH]2)c(C)c1 | 100
CCOC(=O)c1ccc(NC(=O)CSc2cn(C)c3ccccc23)cc1 | 99
CCc1ccc(NC(=O)CN(C)S(=O)(=O)c2cc(Br)cnc2N)cc1 | 101
CN(Cc1ccccc1)C(=O)c1sc2ccccc2c1Cl | 101
N#CCSc1nc2cc(C(=O)NCc3ccccc3)ccc2c(=O)n1CCc1ccccc1 | 100

Assay outcomes deposited in PubChem by ICCB-Longwood Screening Facility, Harvard Medical School.

An excerpt, so the mix of outcomes need not match the whole.
